Assay outcomes from PubChem.
TRPML1 agonist – agonists of human TRPML1 channel | AID 624414 | actives 0.12% (n = 410,000) | activation, % (concentration not given with the values) | Q9GZU1 | TRPML1-expressing cells, Ca2+ dye fluorescence, FDSS; host cell line not named in the record; reference of the full effect not given here; in the data active = activation above about 50%; inconclusive = about 30% to 50%; inactive = below about 30%; further: 0% is about no effect; the text of the record puts the active cut at 80%
Target sequence (Q9GZU1 whole entry, looked up): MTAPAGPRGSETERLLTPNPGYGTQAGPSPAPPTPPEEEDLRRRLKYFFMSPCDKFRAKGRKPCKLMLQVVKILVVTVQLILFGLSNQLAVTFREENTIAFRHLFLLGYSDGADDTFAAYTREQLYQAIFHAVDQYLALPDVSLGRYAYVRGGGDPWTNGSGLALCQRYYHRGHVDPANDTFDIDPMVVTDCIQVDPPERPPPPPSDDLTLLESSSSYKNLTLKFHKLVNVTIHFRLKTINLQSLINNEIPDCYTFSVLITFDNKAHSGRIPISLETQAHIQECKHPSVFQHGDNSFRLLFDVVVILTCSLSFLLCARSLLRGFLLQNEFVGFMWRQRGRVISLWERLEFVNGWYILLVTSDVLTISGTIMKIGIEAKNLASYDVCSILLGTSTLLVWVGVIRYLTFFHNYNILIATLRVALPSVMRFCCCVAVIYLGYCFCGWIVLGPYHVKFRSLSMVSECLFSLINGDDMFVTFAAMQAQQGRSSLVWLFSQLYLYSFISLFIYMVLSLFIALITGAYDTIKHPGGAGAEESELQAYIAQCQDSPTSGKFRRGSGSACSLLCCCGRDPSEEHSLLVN
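Calcium fluorescence on an FDSS kinetic reader gave the read-out. Tet-induced TRPML1-DL cells were plated overnight, dye-loaded (Ca8 with quencher, 45-90 min, room temperature, dark), then read 110 s after compound addition, and again 110 s after 4uM final 54-4 (EC80).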
TRPV1 PAM – human TRPV1 potentiation; Q8NER1; potentiation, % at 8.33 µM; TRPV1-expressing cells, Fluo-8 calcium influx, capsaicin EC20 potentiation; host cell line not named in the record; control for the full effect not named in the record; AID 540277; actives 0.02% (n = 320,000); active means potentiation above 80%; inconclusive means 30% to 80%; inactive means below 30%; further: 0% is about no effect
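TRPV1-expressing cells were cultured overnight at 35.5C and loaded with Fluo-8 calcium dye for 40 to 90 min at room temperature. After a 10 s baseline, compound was added and calcium influx was read kinetically for 3 min (ex 480/em 520 nm).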
ClpP mod – qHTS Assay for Activators of ClpP; Potency, µM (titrated, usually from 57.5 µM), for the others: at the top dose activity change, negative = active; AID 651965, 2013; actives 1.9% (n = 340,000); ATP-dependent Clp protease proteolytic subunit (Bacillus subtilis (strain 168)), P80244; purified B. subtilis ClpP, FRET peptide cleavage, 20 min; active = well fitted falling curve with a large enough effect; inconclusive = small, poorly fitted or top-dose-only effect; inactive = no such curve, though single readings can be large or run the other way; further: potency means the concentration at half of the fitted maximal effect; the source files actives as falling curves though it sought activators and does not explain the sign; nearly all actives have a fitted effect of over 65% in size; many hits overshoot -100%
Target sequence (P80244 whole entry, looked up): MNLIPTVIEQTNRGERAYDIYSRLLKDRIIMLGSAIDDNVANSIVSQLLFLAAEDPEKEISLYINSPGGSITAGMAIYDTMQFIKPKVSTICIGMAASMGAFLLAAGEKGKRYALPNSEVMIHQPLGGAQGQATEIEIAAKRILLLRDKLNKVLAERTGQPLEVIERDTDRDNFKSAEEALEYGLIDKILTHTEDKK
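Buffer: 100 mM Tris/HCl pH8, 100 mM KCl, 0.05% low protease BSA, 2.5% glycerol, 0.01% Tween-20. ClpP 10 microg/mL final; 20 min RT; delta FRET normalized to ADEP and DMSO controls.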
TRPML1 inh – inhibitors of human TRPML1 channel; Q9GZU1; TRPML1-inducible cells, Ca2+ dye fluorescence, FDSS; stronger effect = lower value; inhibition of EC80 agonist-evoked calcium signal; activity change, negative = inhibition, % (no concentration beside the values); actives 0.02% (n = 390,000); in the data active means activity change below about -50%; inconclusive means about -30% to -50%; inactive means above about -30%;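 further: stimulus is agonist 54-4 at its EC80 concentration; on the % scale 0 is the no-effect control and ±100 the full control effect; compound concentration not given in the record; the text of the record puts the active cut at -80%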
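TRPML1-DL cells, Tet-induced overnight (~16 h, 37 °C) at 1,500 cells/well, were loaded with Ca8 no-wash dye plus quencher for 45-90 min at room temperature. Compounds were pinned during FDSS kinetic reading; agonist 54-4 at EC80 (4 uM final) then added.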
PINK1 modulator – modulators of PINK1 expression | actives 0.2% (n = 410,000) | Potency, µM (top dose mostly 76.6 µM), for the others: top-dose activation (PINK1 increase), usual class: activators | AID 624263 | PINK1 immunofluorescence, high-content cytometry, 24 h; active = well fitted activation curve with a large enough effect; inconclusive = small, poorly fitted or top-dose-only effect; inactive = flat fitted curve, though single readings scatter; cell line not stated here;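 further: potency means the concentration at half of the fitted maximal effect; % of control where 0% means no effect; nearly all actives have a fitted effect of over 65% in size; a mitochondrial uncoupler was the plate control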
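Decision-based qHTS: stable cells, 24 h exposure to five compound concentrations, CCCP as control. Fixed cells stained for PINK1 plus nuclear, mitochondrial and cell markers, cytometer read.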
The depositor's hits bear a star; ? = inconclusive; . = not tested or not shown.

| cpd | canonical_smiles | PINK1 modulator | TRPML1 inh | TRPV1 PAM | TRPML1 agonist | ClpP mod |
| --- | --- | --- | --- | --- | --- | --- |
| 1 | CCC(=O)NC(c1cc(Cl)c2ccccc2c1O)C1CC1 (stereo unspecified) | 0.2% | . | -3 | . | . |
| 2 | Cn1nnnc1Sc1ncnc2scc(-c3cccc(S(C)(=O)=O)c3)c12 | 6.9% | . | -7 | . | . |
| 3 | Clc1ccccc1-c1ccc2ncnc(NCc3ccc4c(c3)OCO4)c2c1 | 1.2% | . | 15 | . | . |
| 4 | O=S(=O)(NC1CCN(S(=O)(=O)c2c(F)cccc2F)C1)c1ccc2c(c1)OCCO2 (stereo unspecified) | -0.2% | . | 26 | . | . |
| 5 | N#Cc1nc(-c2cccc3ccccc23)oc1N | 1.1% | . | 18 | . | . |
| 6 | O=S(=O)(c1ccc2c(c1)OCCO2)N1CCCN(S(=O)(=O)c2c(F)cccc2F)CC1 | -0.7% | . | -4 | . | . |
| 7 | COc1cccc(-c2ccc3ncnc(NCc4cccc(C)c4)c3c2)c1 | 5.0% | . | 19 | . | . |
| 8 | COc1cccc(-c2ccc3ncnc(NCc4cc(C)cs4)c3c2)c1 | 3.2% | . | -11 | . | . |
| 9 | C/C(=C\c1ccc2c(c1)OCO2)C1Nc2cccc3cccc(c23)N1 | -0.4% | . | -7 | . | . |
| 10 | CC(=O)NC(c1cc(Cl)c2ccccc2c1O)C(C)C (stereo unspecified) | 12% | . | -5 | . | . |
| 11 | Cn1nnnc1Sc1ncnc2scc(-c3ccc([N+](=O)[O-])cc3)c12 | 0.0% | . | -8 | . | . |
| 12 | CS(=O)(=O)c1cccc(-c2csc(N3CCC(C(N)=O)CC3)n2)c1 | 7.2% | . | 3 | . | . |
| 13 | CN1CCN(C2CCN(Cc3ccc(O)c4ncccc34)CC2)CC1 | -1.3% | . | -6 | . | . |
| 14 | Cn1nnnc1Sc1ncnc2scc(-c3cc4ccccc4o3)c12 | -2.2% | . | 28 | . | . |
| 15 | CN1CCN(c2cc(-c3cc(O)c4ncccc4c3)ccn2)CC1 | 2.4% | . | 6 | . | . |

Given with values under each structure: 14 of the compounds above.
Values run as follows: PINK1 modulator	TRPML1 inh	TRPV1 PAM	TRPML1 agonist	ClpP mod
(1) CCC(=O)NC(c1cc(Cl)c2ccccc2c1O)C1CC1 (stereo unspecified)
  0.2%	.	-3	.	.
(2) Cn1nnnc1Sc1ncnc2scc(-c3cccc(S(C)(=O)=O)c3)c12
  6.9%	.	-7	.	.
(3) Clc1ccccc1-c1ccc2ncnc(NCc3ccc4c(c3)OCO4)c2c1
  1.2%	.	15	.	.
(4) O=S(=O)(NC1CCN(S(=O)(=O)c2c(F)cccc2F)C1)c1ccc2c(c1)OCCO2 (stereo unspecified)
  -0.2%	.	26	.	.
(5) N#Cc1nc(-c2cccc3ccccc23)oc1N
  1.1%	.	18	.	.
(6) O=S(=O)(c1ccc2c(c1)OCCO2)N1CCCN(S(=O)(=O)c2c(F)cccc2F)CC1
  -0.7%	.	-4	.	.
(7) COc1cccc(-c2ccc3ncnc(NCc4cccc(C)c4)c3c2)c1
  5.0%	.	19	.	.
(8) COc1cccc(-c2ccc3ncnc(NCc4cc(C)cs4)c3c2)c1
  3.2%	.	-11	.	.
(9) C/C(=C\c1ccc2c(c1)OCO2)C1Nc2cccc3cccc(c23)N1
  -0.4%	.	-7	.	.
(10) CC(=O)NC(c1cc(Cl)c2ccccc2c1O)C(C)C (stereo unspecified)
  12%	.	-5	.	.
(11) Cn1nnnc1Sc1ncnc2scc(-c3ccc([N+](=O)[O-])cc3)c12
  0.0%	.	-8	.	.
(12) CS(=O)(=O)c1cccc(-c2csc(N3CCC(C(N)=O)CC3)n2)c1
  7.2%	.	3	.	.
(13) CN1CCN(C2CCN(Cc3ccc(O)c4ncccc34)CC2)CC1
  -1.3%	.	-6	.	.
(14) Cn1nnnc1Sc1ncnc2scc(-c3cc4ccccc4o3)c12
  -2.2%	.	28	.	.

(next part)
| cpd | canonical_smiles | PINK1 modulator | TRPML1 inh | TRPV1 PAM | TRPML1 agonist | ClpP mod |
| --- | --- | --- | --- | --- | --- | --- |
| 16 | CCC(=O)NC(c1cc(Cl)c2cccnc2c1O)C(C)C (stereo unspecified) | 3.5% | . | 9 | . | . |
| 17 | N#Cc1nc(Nc2cc(F)cc(F)c2)c2ncn(CC(F)F)c2n1 | 6.5% | . | -5 | . | . |
| 18 | O=C(COC(=O)CNC(=O)c1ccccc1Cl)Nc1cc(C(F)(F)F)ccc1Cl | 0.2% | . | 8 | . | . |
| 19 | O=S(=O)(NCCCNS(=O)(=O)c1c(F)cccc1F)c1ccc2c(c1)OCCO2 | -0.1% | . | -5 | . | . |
| 20 | O=S(=O)(NCCCCCCNS(=O)(=O)c1c(F)cccc1F)c1ccc2c(c1)OCCO2 | -0.8% | . | 3 | . | . |
| 21 | O=C1NC(=O)/C(=C/c2ccco2)N1 | 0.5% | . | -4 | . | . |
| 22 | NC(=O)c1cccc(-c2noc(-c3ccccc3F)n2)c1 | 1.2% | . | -4 | . | . |
| 23 | O=c1c2ccccc2nc2sc(Nc3ccc(F)cc3)nn12 | 1.7% | . | -3 | . | . |
| 24 | CC(C)(C)n1ncc2c(=O)n(Cc3ccc(OC(F)(F)F)cc3)cnc21 | . | 46 | . | 0.4 | . |
| 25 | CC(C)(C)n1ncc2c(=O)n(Cc3c(F)ccc(Cl)c3Cl)cnc21 | . | 6 | . | 2.3 | . |
| 26 | CC(C)(C)n1ncc2c(=O)n(Cc3ccccc3)cnc21 | . | 22 | . | 1.9 | . |
| 27 | CC(C)(C)n1ncc2c(=O)n(Cc3ccc(Cl)cc3C(F)(F)F)cnc21 | . | -2 | . | 0.8 | . |
| 28 | CC(C)(C)n1ncc2c(=O)n(Cc3ccccc3Cl)cnc21 | . | -1 | . | 2.3 | . |
| 29 | CC(C)(C)n1ncc2c(=O)n(Cc3ccc(C#N)cc3)cnc21 | . | -5 | . | 0.3 | . |
| 30 | CC(C)(C)n1ncc2c(=O)n(Cc3ccc(Cl)c(C(F)(F)F)c3)cnc21 | . | 29 | . | 0.3 | . |
| 31 | CC(C)(C)n1ncc2c(=O)n(Cc3cc(Cl)ccc3Cl)cnc21 | . | 25 | . | 2.2 | . |
| 32 | COc1ccc(Cl)c(Cn2cnc3c(cnn3C(C)(C)C)c2=O)c1 | . | -17 | . | 2.3 | . |
| 33 | CC(C)(C)n1ncc2c(=O)n(Cc3c(Cl)ccc(Cl)c3Cl)cnc21 | . | -2 | . | 1.4 | . |
| 34 | Cc1ccc([C@H]2N[C@]3(CCCN(Cc4cccn4C)C3=O)[C@H]3C(=O)N(Cc4ccccc4)C(=O)[C@@H]23)cc1 | 2.5% | . | . | . | 0.4% |
| 35 | C=CC(C)(C)c1c2occc2c(O)c2ccc(=O)oc12 | ? | . | . | . | 0.1% |
| 36 | CC(=O)Oc1ccc2c(c1)CCC1C2CCC2(C)C(OC(C)=O)CCC12 (stereo unspecified) | 3.2% | . | . | . | -1.4% |
| 37 | O=C(Nc1ccn(CCCNCC(c2ccccc2)c2ccccc2)c(=O)n1)OCc1ccccc1 | -1.4% | . | . | . | 0.9% |
| 38 | Nc1ccn([C@@H]2O[C@H](CNCc3cccc(OC4CCCC4)c3)[C@@H](O)[C@H]2O)c(=O)n1 | 2.5% | . | . | . | 0.4% |
| 39 | CCc1nc(SCc2cc(=O)[nH]c3ccccc23)c2c(C)c(C)sc2n1 | 3.8% | . | . | . | -6.4% |
| 40 | Cc1cn([C@H]2C[C@H](O)[C@@H](CNC(=O)c3ccccn3)O2)c(=O)[nH]c1=O | 0.5% | . | . | . | 0.2% |
| 41 | COc1ccc([C@H]2C[C@H](O)[C@@H](n3cc(C4CC4)nn3)CN2CC2CCCCC2)cc1 | 6.1% | . | . | . | -5.1% |
| 42 | CCC(C)C(CO)NCCCn1cnc2c(OC)ncnc21 (stereo unspecified) | -0.9% | . | . | . | 2.3% |
| 43 | Cc1cccc(NC(=O)c2nc[nH]c2C(=O)Nc2ccccc2F)c1 | ? | . | . | . | -1.5% |
| 44 | C/C(CCc1ccc2c(c1)OCO2)=N\N=C1\NC(=O)CC(C(=O)Nc2ccc(C(=O)O)cc2)S1 (stereo unspecified) | 1.6% | . | . | . | -1.3% |
| 45 | C[C@@H]1CCCCO[C@@H](CN(C)C(=O)CCC(F)(F)F)[C@@H](C)CN([C@H](C)CO)C(=O)c2cc(N(C)C)ccc2O1 | -0.7% | . | . | . | ? |
| 46 | CCCn1c(=NC(=O)c2ccncc2)c(C#N)cc2c(=O)n3cccc(C)c3nc21 | 1.7% | . | . | . | -15% |
| 47 | COc1ccc(NC(=O)C[C@H]2C(=O)N(C3CCCCC3)C[C@@H]2C)cc1 | 0.2% | . | . | . | 0.5% |
| 48 | CC(C)C1C(=O)N(Cc2cn(CC3CCCCC3)nn2)CCS(=O)(=O)N1Cc1ccc(-c2ccc(Cl)nc2)cc1 (stereo unspecified) | 1.1% | . | . | . | -5.5% |
| 49 | Cc1ccc(-c2ccc3c(c2)O[C@H](CN(C)Cc2cncnc2)[C@@H](C)CN([C@H](C)CO)S3(=O)=O)cc1 | 2.3% | . | . | . | 0.3% |
| 50 | Cc1cccc(C2c3c(n(C)c(=O)n(C)c3=O)N=C3c4ccccc4C(=O)C32)c1 (stereo unspecified) | 6.2% | . | . | . | 0.5% |
| 51 | O=C(OCc1ccccc1)c1ccccc1O | 8.4% | . | . | . | -8.6% |
| 52 | Cc1ccc([C@H]2C[C@H](n3cc(COC(=O)c4ccccc4)nn3)[C@@H](O)CN2Cc2cccs2)cc1 | 2.2% | . | . | . | -4.0% |
| 53 | Cc1noc(C)c1S(=O)(=O)Nc1ccc2c(c1)C(=O)N([C@H](C)CO)C[C@H](C)[C@H](CN(C)C(=O)NC(C)C)OCCCC[C@@H](C)O2 | 1.0% | . | . | . | -0.8% |
| 54 | CC(C)CC1C(=O)N(Cc2cn(CCC3OCCCO3)nn2)CCS(=O)(=O)N1Cc1ccc(-c2cccc(CO)c2)cc1 (stereo unspecified) | 5.5% | . | . | . | -0.2% |
| 55 | O=C1NC(Cc2ccccc2)c2nc3ccc(Br)cc3c(=O)n2-c2cc3ccccc3cc21 (stereo unspecified) | 1.8% | . | . | . | -10% |
| 56 | Cc1ccc(CN2CCC[C@]3(N[C@H](c4ccccc4)[C@@H]4C(=O)N(C)C(=O)[C@@H]43)C2=O)cc1 | 0.9% | . | . | . | 0.9% |
| 57 | CCC/C=C/c1ccc(CN2C(CC(C)C)C(=O)N(Cc3cn(CCC4OCCO4)nn3)CCS2(=O)=O)cc1 (stereo unspecified) | 1.7% | . | . | . | -1.2% |
| 58 | COc1c(Cl)cc(C(=O)O)cc1Cl | 0.2% | . | . | . | -0.7% |
| 59 | CCC1(CC)C(=O)Nc2ccccc21 | 0.3% | . | . | . | -2.2% |
| 60 | C[C@@H](O)CNC(=O)c1[nH]cnc1C(=O)Nc1ccc(CNC(=O)OC(C)(C)C)cc1 | 0.6% | . | . | . | -1.2% |
| 61 | CC(C)(C)OC(=O)N1CCc2onc(-c3ccccc3F)c2C1=O | 1.8% | . | . | . | -1.2% |
| 62 | COc1cc(O)c(C(C)=O)c2c1C=CC(C)(C)O2 | 8.0% | . | . | . | 3.0% |
| 63 | CCN(CC)C(=O)C1=C(C)N(Cc2ccc(F)cc2)C(=O)C(CC(=O)NCCc2ccccn2)C1 (stereo unspecified) | -0.4% | . | . | . | 0.4% |

The list is partial (hit frequency here may not be typical).
